From PubChem
eIF4H inh: human eIF4H binding inhibitors, primary screen, translation initiation inhibitor project, biochemical, uHTS, fluorescence polarization; Eukaryotic translation initiation factor 4H (Homo sapiens), Q15056; eIF4H fluorescence polarization binding assay; inhibition, % at 35 µM; actives 0.94% (n = 290,000);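 active = 50% or more with normal probe brightness, or confirmed in later tests; inconclusive = above 50% with abnormal brightness, or retests that disagree; inactive = below 50% or failed in later tests; about a fifth of its hits are not listed in these tables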;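 note: calls also rest on retests at 20 µM and on dose response follow-up; 0% = protein and probe with vehicle and 100% = probe without protein; strong numbers were not always called active; many hits fall short of the cut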
Env fusion inh: inhibitors of HIV-1 Env-driven cell-cell fusion, primary screen, HeLa-JRFL effector, CEM21 target cells, luciferase. inhibition, % at 12.3 µM. actives 1.1% (n = 360,000). AID 651610, 2012;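 active = mean replicate inhibition score of at least 50 and every replicate individually at or above 50; inconclusive = only one of the two criteria met; inactive = mean below 50 and not all replicates reaching 50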;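 note: 0% = plate neutral controls and 100% = maraviroc near 300 nM; one replicate is shown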
Rce1 inhib: yeast Rce1p protease inhibitors, primary screen, biochemical, fluorescence, cell-free homogeneous; CAAX prenyl protease 2 (Saccharomyces cerevisiae (strain ATCC 204508 / S288c)), Q03530; yeast membranes, quenched prenylated peptide cleavage fluorescence; calls only; actives 0.27% (n = 290,000);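 active = fall in fluorescence gain of 50% or more versus controls, with final raw signal at or below 3038400; inconclusive = same 50% fall but final raw signal above 3038400; inactive = fall in fluorescence gain under 50%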;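 note: plate controls were neutral control wells for no effect and wells lacking membranes for full effect; tested at 10 µM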
Target sequence (Q03530 whole entry, looked up): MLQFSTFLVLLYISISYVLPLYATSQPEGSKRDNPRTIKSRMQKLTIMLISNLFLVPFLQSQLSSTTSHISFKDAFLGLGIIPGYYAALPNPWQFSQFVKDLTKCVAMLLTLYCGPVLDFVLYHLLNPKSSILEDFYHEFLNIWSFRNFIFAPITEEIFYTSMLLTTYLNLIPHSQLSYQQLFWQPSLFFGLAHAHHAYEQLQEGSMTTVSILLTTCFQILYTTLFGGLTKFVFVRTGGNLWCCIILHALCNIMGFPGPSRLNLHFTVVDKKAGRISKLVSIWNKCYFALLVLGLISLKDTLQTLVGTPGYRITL
PABP polyA inh: PABP poly(A) RNA binding inhibitors, primary screen, biochemical, fluorescence polarization, uHTS; actives 1% (n = 290,000); inhibition, % at 35 µM; AID 2014, 2009; Polyadenylate-binding protein 1 (Homo sapiens), P11940;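 active = 50% or more with normal probe brightness, or confirmed in later tests; inconclusive = above 50% with abnormal brightness, or retests that disagree; inactive = below 50% or failed in later tests; about a fifth of its hits are not listed in these tables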;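 note: calls also rest on retests at 20 µM and on dose response follow-up; controls were probe without protein and protein plus probe with vehicle; some compounds called inactive have numbers as strong as hits; many hits fall short of the cut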
MT1-MMP act inh: blockers of MT1-MMP proenzyme processing, primary screen, HT1080 RFP-PRO-GFP cells, GFP/RFP fluorescence; GFP/RFP ratio fluorescence, overnight; percent of plate control window, DMSO zero; GFP/RFP ratio change, % at 20 µM; actives 0.061% (n = 360,000); AID 651647, 2012;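 active = GFP/RFP ratio change of at least 30% with cell ATP level not reduced by more than half and red fluorescence within 50% of control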; note: strong numbers were not always called active
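Material – HT1080 RFP-PRO-GFP cells · Control set – DMSO wells and RFP-L50D-GFP cells · Incubation – overnight cell settling, then overnight compound exposure, 37 °C, 5% CO2 · Compound dosing – single-point 20 µM compound, 1% DMSO · Read-out – GFP/RFP fluorescence ratio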
CSC inhib: cancer stem cell viability inhibitors, primary screen, luminescence; cancer stem cell-like cells viability; inhibition, % at 7.5 µM; actives 1.1% (n = 300,000); AID 2717, 2010;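 active = mean at 75% or more and at least half the replicates too; inconclusive = mean and replicates disagree; tested in HMLE shEcad cells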;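 note: 0% = median of negative and 100% = median of positive control wells; the first replicate is given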
Yeast UUG start: modulators of yeast start codon fidelity, primary screen, whole organism, S. cerevisiae, single point, plate reader; S. cerevisiae UUG-firefly luciferase reporter, luminescence/redox ratio; activity score, % at 18.7 µM; actives 0.13% (n = 350,000);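 active = replicate mean at a twofold rise or more, about +100% in these data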;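 note: firefly luciferase made from a UUG start codon reports start codon fidelity; reporter light over untreated wells divided by growth signal over untreated wells; some hits fall short of that in this replicate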
eIF4H inh retest: also measured in eIF4H inh; calls as there; inhibition, %; compound at 20 µM; confirmation average;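 mean of two retest wells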
PABP polyA inh retest: recorded beside PABP polyA inh, whose call it bears; inhibition, %; compound at 20 µM; confirmation repeats;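 mean of two retest wells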
MT1-MMP act inh RFP: recorded beside MT1-MMP act inh, whose call it bears; RFP signal change, %; measured here: RFP expression control read;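 0 = vehicle wells; hits needed this value within 50% of zero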
An asterisk follows results filed as active; i = inactive; ? = inconclusive; / = not tested or not shown; & = joins results of further samples; [ ] = another dose, or the depositor's remark.

SMILES	eIF4H inh	Env fusion inh	Rce1 inhib	PABP polyA inh	MT1-MMP act inh	MT1-MMP act inh RFP	CSC inhib	Yeast UUG start	others
O=C(Nc1ccccc1Cl)Nc1cccnc1Cl	-2	-6	i	?	0	-5	-1	/
COc1cc2cc(-c3ccc(OC)c(OC)c3C)nc(N)c2cc1OC	/	-32	i	/	-9	-12	63	-13
C=Cn1cc[n+](CC(=O)c2ccc(OC)c(OC)c2)c1	-4	-19	i	-4	1	3	3	5
CCOC(=O)Nc1nnc(CCc2ccccc2)s1	10	/	i	0	-11	-2	4	-21
Cc1ccc(N2CC(NC(=O)C(=O)c3c(C)[nH]c4ccccc34)CC2=O)cc1C (centres undefined)	/	7	i	/	-4	-1	-9	-2
CC(C)Cn1c(=O)c2sccc2n2c(CCCC(=O)NC3CCN(Cc4ccccc4)CC3)nnc12	-5	2	i	-7	-1	-5	-6	-8
O=C(CCc1ccccc1)Nc1ccnn1C1CCN(C/C=C/c2ccccc2)CC1	-1	-10	i	3	3	1	18	-13
CCN(CC(=O)NC(C)C)C(=O)C(CCSC)NC(=O)c1ccccc1OC (centres undefined)	-11	3	i	-4	-2	-2	-3	/
CC1(C)Oc2ccc3ccc(=O)oc3c2/C(=N/O)C1=O	-10	21	i	-7	-1	2	-10	2
CCc1c(N)nc(N)nc1Nc1ccccc1Cl	/	-70	/	/	3	-10	/	-6
Cc1cccc(Nc2nnc(SCC(=O)Nc3ccc(C(=O)O)cc3)s2)c1	5	6	i	-3	-1	-1	-10	/
CNC(=O)c1c(NC(=O)C2=COCCO2)sc(C)c1C	/	3	i	/	-1	0	8	7
Cc1ccc(CONC(=O)c2cccc([N+](=O)[O-])c2)cc1	/	-25	/	/	1	5	/	-14
O=C(CN1C(=O)CCS(=O)(=O)c2ccccc21)Nc1ccc2c(c1)OCCO2	6	/	i	6	6	4	/	-7
CCC(C)N(C(=O)c1csnn1)C(C(=O)NCc1ccc(F)cc1)c1ccccc1F (centres undefined)	-6	-1	/	9	1	1	-15	3
Cc1cc(C)c(C(=O)CSc2nc(C)cc(=O)[nH]2)c(C)c1	0	-62	/	1	3	0	-7	-52
CSc1nc(Sc2ccccc2Cl)c2ccccc2n1	-2	/	i	-1	-7	-4	/	/
Cc1cccc(-n2nnnc2SCC(=O)NCCN2C(=O)CSC2=O)c1	-3	-11	i	2	7	3	-13	2
Cc1ccc(C(=O)Nc2nc(=O)n(C(=O)C3CC3)s2)cc1	13	/	i	4	-1	2	-2	/
COc1ccc(NC(=O)N(C)C[C@H]2Oc3ccc(NC(=O)NC4CCCCC4)cc3C(=O)N([C@H](C)CO)C[C@@H]2C)cc1	/	4[16.7 µM]	/	/	0	5	/	-2&-29
O=C(O)c1ccc(S(=O)(=O)N(Cc2cccs2)CC2CCCO2)cc1 (centres undefined)	1	6	i	1	4	8	1	-23
c1ccc(-c2cn(C[C@H]3CC[C@@H]([C@@H]4CC[C@H](Cn5cc(-c6ccccn6)nn5)O4)O3)nn2)nc1	3	-5	i	2	4	5	-13	-14
NC(=O)N/N=C/c1cccc(OCc2ccc(F)cc2)c1	12	-27	i	7	5	0	9	/
O=S(=O)(c1cc(Cl)ccc1Cl)N1CCCC1	3	/	i	-7	1	-1	19	-15
CCCN(CC(=O)Nc1ccccc1OC)C(=O)c1nc2nc(C)ccn2n1	/	-2	/	/	-1	3	9	-4

Filtered by structure: the entries above with a COOH group (2)
SMILES	eIF4H inh	Env fusion inh	Rce1 inhib	PABP polyA inh	MT1-MMP act inh	MT1-MMP act inh RFP	CSC inhib	Yeast UUG start	others
Cc1cccc(Nc2nnc(SCC(=O)Nc3ccc(C(=O)O)cc3)s2)c1	5	6	i	-3	-1	-1	-10	/
O=C(O)c1ccc(S(=O)(=O)N(Cc2cccs2)CC2CCCO2)cc1 (centres undefined)	1	6	i	1	4	8	1	-23

Returning to the listing with the five entries that preceded the break.
SMILES	eIF4H inh	Env fusion inh	Rce1 inhib	PABP polyA inh	MT1-MMP act inh	MT1-MMP act inh RFP	CSC inhib	Yeast UUG start	others
O=C(O)c1ccc(S(=O)(=O)N(Cc2cccs2)CC2CCCO2)cc1 (centres undefined)	1	6	i	1	4	8	1	-23
c1ccc(-c2cn(C[C@H]3CC[C@@H]([C@@H]4CC[C@H](Cn5cc(-c6ccccn6)nn5)O4)O3)nn2)nc1	3	-5	i	2	4	5	-13	-14
NC(=O)N/N=C/c1cccc(OCc2ccc(F)cc2)c1	12	-27	i	7	5	0	9	/
O=S(=O)(c1cc(Cl)ccc1Cl)N1CCCC1	3	/	i	-7	1	-1	19	-15
CCCN(CC(=O)Nc1ccccc1OC)C(=O)c1nc2nc(C)ccn2n1	/	-2	/	/	-1	3	9	-4
Cc1cccc2c1nc(-c1ccccc1)n1nnnc21	2	-64	i	2	-2	-3	/	-22
COc1cccc(NC(=O)c2ccc3c(c2)N(CC(=O)N2CCOCC2)C(=O)C(C)(C)O3)c1	-8	0	i	0	-4	-4	-5	-3
COC(=O)CCCC1=CC2=CC(=O)C(C)(OC(=O)c3cccs3)C(=O)C2=CN1Cc1ccco1 (centres undefined)	61*	-33	i	50*	6	10	-9	11	eIF4H inh retest=88*;PABP polyA inh retest=84*
COc1ccccc1N1CCN(C(=O)C(=O)c2c[nH]c3ccccc23)CC1	-2	2	i	-8	0	4	3	2
Cc1ccc(S(=O)(=O)N2CCC(C(=O)OCc3ccccc3)CC2)cc1C	/	3	i	/	3	-1	-1	-19
COc1cccc(CNS(=O)(=O)c2ccc3c(c2)oc(=O)n3C)c1	10	/	i	9	-9	0	13	-11
CC(C)CNS(=O)(=O)c1ccc2c(c1)OCCO2	-7	-28	i	-2	1	2	6	-7
CCCOc1nc2c(c(=O)n(C)c(=O)n2C)n1CCC	3	/	i	-7	-2	-3	-22	-5
COCCCn1c(=O)c2sccc2n(Cc2cccc(C)c2)c1=O	-14	6	i	11	1	0	-11	-9
Fc1ccc(C(c2nnnn2Cc2cccs2)N2CCN(c3ccccc3)CC2)cc1 (centres undefined)	0	-74	i	-3	-12	-15	3	-21
O=C(Nc1ccccc1)c1cc(C2CCCN(C(=O)c3cccs3)C2)on1 (centres undefined)	/	-6	/	/	0	4	/	-4
CCOC(=O)C(NC(=O)c1cccc(Cl)c1)(OCc1ccc(F)cc1)C(F)(F)F (centres undefined)	-1	25	i	-5	-9	-9	2	-6
CC(C)(C)NCCOCCOc1ccccc1-c1ccccc1	-7	-4	i	12	0	0	21	/
CN1CCN(c2ccc(S(=O)(=O)N3CCOCC3)cc2NC(=O)C2CCCCC2)CC1	/	-4	/	/	-1	1	/	-7
Cc1nn(-c2ccc(C(=O)O)cc2)c(=O)c2ccccc12	-7	-16	i	3	6	-1	3	/
CCCC(=O)Nc1ccc2c(c1)nc1n2CCOC1	-3	-51	i	-3	-1	1	-6	-9
O=c1oc2cc(Cl)ccc2n1CSc1nc2ccccc2s1	1	/	i	4	1	0	13	/
O=C(CN1CCN(c2cccc(Cl)c2)CC1)Nc1ccc([N+](=O)[O-])cc1C(=O)Nc1ccccc1F	4	93*	i	17	0	-9	7	/
Cc1ccc(/C=N/NC(=O)Cn2nnc(N)n2)cc1	-4	-21	i	8	4	6	-10	/
CC1(C(=O)NCCN2CCOCC2)C=CCN1C(=O)c1ccccc1 (centres undefined)	2	-68	i	2	4	5	10	-7
C/C(=N\NC(=O)CNC(=O)c1ccccc1Br)c1ccco1	-8	16	i	-7	3	3	-16	-13
CCOCCCNC(=O)C1CCCN1C(=O)Nc1ccccc1[N+](=O)[O-] (centres undefined)	1	23	i	1	4	5	-13	-19
CCC(=O)Nc1ccc(C2=Nn3c(nnc3C(C)C)SC2)cc1	11	14	i	3	2	0	1	-14
COc1ccc(-c2[nH]ncc2CN2CCN(C(=O)c3cccs3)CC2)c(F)c1	0	12	i	6	1	-4	-12	-12
CN1CCN(c2ccc(CNC(=O)C3(C)Cc4c(-c5ccc(C(N)=O)cc5)ccnc4O3)cc2)CC1 (centres undefined)	/	-3	/	/	2	5	/	-10

Next part.
SMILES	eIF4H inh	Env fusion inh	Rce1 inhib	PABP polyA inh	MT1-MMP act inh	MT1-MMP act inh RFP	CSC inhib	Yeast UUG start	others
O=C(c1cccs1)N1CCN(C(=O)C2CCCO2)CC1 (centres undefined)	0	/	i	-1	-4	5	-2	-14
CCCCC1OC23CCCCC2C(C#N)(C(=N)O3)C1(C#N)C#N (centres undefined)	?	/	i	?	-11	18	-3	/
COc1ccccc1C(=O)NNC(=O)Cc1ccccc1	1	-10	i	-1	0	4	-32	-13
O=C(NCCOc1ccccc1)c1ccccc1	-2	-100	i	-1	-3	3	-9	-34
CO/N=C(/CS(=O)Cc1ccccc1Cl)c1ccc(Cl)cc1Cl (centres undefined)	2	/	i	5	-1	-3	/	14
CCc1ccc(S(=O)(=O)n2c(C)nc3ccccc32)cc1	-2	-51	i	-1	1	-2	-13	-2
O=C(NCc1ccco1)c1cc(-c2cccs2)on1	1	-307	i	6	4	3	/	-16

For convenience, some entries already given:
SMILES	eIF4H inh	Env fusion inh	Rce1 inhib	PABP polyA inh	MT1-MMP act inh	MT1-MMP act inh RFP	CSC inhib	Yeast UUG start	others
O=C(c1cccs1)N1CCN(C(=O)C2CCCO2)CC1 (centres undefined)	0	/	i	-1	-4	5	-2	-14
CCCCC1OC23CCCCC2C(C#N)(C(=N)O3)C1(C#N)C#N (centres undefined)	?	/	i	?	-11	18	-3	/

Some of the compounds tested (hit frequency here may not be typical).
